Bioassay records (PubChem)
Measles inh: inhibitors of measles virus growth in infected cells | infected Vero cells, GFP fluorescence, 64 h; stronger effect = lower value | z-score (test concentration not listed) | actives 0.1% (n = 33,000) | AID 745;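 active = z-score under -3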;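 note: score is relative to mean and SD of the compound wells of a plate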
Numbers without * were called inactive. The list is partial (hit frequency here may not be typical).

smiles	Measles inh
CC1(C)CC(n2c(SCC#N)nc3c(c2=O)C2(CCCCC2)Cc2ccccc2-3)CCO1 (configuration not stated)	-0.05
CCCOc1cccc(NC(=O)c2cc(C(C)(C)C)oc2C)c1	-0.36
Cc1nn(Cc2ccc(Cl)cc2)c(C)c1NC(=O)CCS(=O)(=O)c1nc(-c2cccs2)cc(C(F)(F)F)n1	1
OC(CN1CCCC1)Cn1c2ccc(Cl)cc2c2cc(Cl)ccc21 (configuration not stated)	-2
Cc1coc2cc3oc(=O)c4ccccc4c3cc12	-0.34
CCN(CC)C(=NS(=O)(=O)c1ccc(F)cc1)c1ccccc1	-0.48
O=C(NCCSc1ccccn1)c1cccc(Cl)c1	-0.14
CCOc1cccc2c1OC(c1ccccc1Cl)N1N=C(c3cccs3)CC21 (configuration not stated)	1.9
Cc1ccc(Cl)cc1NC(=O)CN(c1ccccc1)S(=O)(=O)c1ccccc1[N+](=O)[O-]	0.19
COc1ccc(C(=O)Nc2cccc3c2C(=O)c2ccccc2C3=O)cc1	2
Cc1nc(Cl)c2c(n1)NC(=O)CO2	1.2
Cc1ccc(CNC(=O)C2c3ccccc3C(=O)N3CCc4ccccc4C23)o1 (configuration not stated)	-0.36
CC1C(c2ccccc2)C(C#N)(C#N)C2(C#N)CC1(O)NC2=O (configuration not stated)	0.66
CCCCOCC(O)CN1CCOCC1 (configuration not stated)	0.79
COc1ccc(Cl)cc1C(=O)Nc1cc(-c2nc3ncccc3o2)ccc1Cl	2
COCCCNC(=O)CCCn1c(=O)[nH]c2ccccc2c1=O	0.97
COC(=O)c1cnc(N2CCCCCC2)c2ccccc12	-0.5
CC1(C)Cc2ccccc2C(Nc2ccc(Cl)cc2)=N1	-0.64
COc1ccccc1CNC(=O)c1sc(=S)n(CCc2ccccc2)c1N	0.96
O=C(OC(c1ccccc1)c1nccc2ccccc12)c1cccs1 (configuration not stated)	-0.11
O=C(O)c1c[nH]c2ccc(S(=O)(=O)N3CCc4ccccc4C3)cc2c1=O	-1.9
COc1ccc(-n2nc3c(c2NC(=O)c2ccc(OC(C)C)cc2)CS(=O)(=O)C3)cc1	-0.39
COC(=O)CCN(C(=O)c1ccc(OC(C)=O)cc1)c1ccccn1	0.31
O=C(COC(=O)c1c2c(nc3ccccc13)CCCC2)c1ccc(Cl)cc1	-0.11
Cc1ccc(C(=O)Nc2nnc(N=Cc3ccc(F)cc3)s2)cc1	0.07
COc1ccc(NC(=O)C2CCN(S(=O)(=O)c3cccc4nonc34)CC2)cc1Cl	1.1
O=C1CC(Sc2ccccn2)C(=O)N1c1ccccc1 (configuration not stated)	0.34
CCOc1cc(C2C(C(=O)OC(C)C)=C(C)NC3=C2C(=O)CC(c2ccccc2)C3)ccc1O (configuration not stated)	0
O=C(Nc1ccc2c(c1)OCO2)c1cnn2c1NC(c1ccco1)CC2C(F)(F)F (configuration not stated)	0.45
CC(=O)c1ccc2c(c1)C1C=CCC1C(c1ccc(C(=O)O)cc1)N2 (configuration not stated)	-0.61
C=CCSc1nc2c(c(=O)[nH]c(=O)n2C)n1CCc1ccccc1	0.95
COc1ccc(C(=O)Nc2nc3c(OC)cccc3s2)cc1OC	-0.18
CC1=C(C(=O)Nc2ccc(Cl)cc2)C(c2cccc([N+](=O)[O-])c2)NC(=O)N1 (configuration not stated)	-0.89
Cc1ccc(NC(=O)c2ccccc2NS(=O)(=O)c2ccc(Cl)cc2)c(C(=O)c2ccccc2)c1	-0.5
CCOC(=O)c1c(NC(=O)COc2ccc(F)cc2)sc2c1CCC(C)C2 (configuration not stated)	0.14
Cn1c(=S)n(CCC(=O)O)c2ccccc21	1.3
COc1cc(C2C(C(=O)N3CCCC3)CCC(=O)N2c2ccc3c(c2)OCO3)cc(OC)c1OC (configuration not stated)	-0.27
CCc1ccc(OC(=O)c2cc3cc(Br)ccc3oc2=O)cc1	3
CC1CCN(C(=O)CSc2cc(=O)n(C)c3ccccc23)CC1	-0.66
O=C(CSc1nc2cc3c(cc2c(=O)n1Cc1ccc(C(=O)N2CCN(c4ccccc4)CC2)cc1)OCO3)c1ccccc1	0.97
CCN(C(=O)CSc1ncccc1C(=O)Oc1ccccc1Cl)c1cccc(C)c1	-2.3
COC(=O)c1ccc(C2C3=C(CC(C)(C)CC3=O)Nc3ccccc3N2C(=O)CCC(=O)O)cc1 (configuration not stated)	-0.25
O=C(COC(=O)c1ccccc1Nc1ccccc1)c1ccc(Br)cc1	0.26
O=S(=O)(N=C(Nc1ccccn1)c1ccc(F)cc1)c1ccccc1	-0.56
Cc1ccc(C2CC(C(F)(F)F)n3nc(C(=O)Nc4ccc5c(c4)CCC5)cc3N2)cc1 (configuration not stated)	0.97
COc1ccc(N=C2SC(C(=O)Nc3ccc(C(=O)O)cc3)CC(=O)N2Cc2ccc3c(c2)OCO3)cc1 (configuration not stated)	0.23
CCN(CC)c1ccc(Nc2nc(-c3sc(NC(C)=O)nc3C)cs2)cc1	0.52
CCCOc1cccc(C(=O)Nc2ccc(NC(=O)c3cccs3)cc2)c1	-0.15
O=c1oc2ccccc2cc1-c1csc(-c2cc3ccccc3oc2=O)n1	0.23
CC(C)c1ccc(C(=O)N2N=C(C(F)F)CC2(O)C(F)F)cc1 (configuration not stated)	-0.18

Later entries
smiles	Measles inh
CCCCSc1oc(-c2cccs2)nc1S(=O)(=O)c1ccc(Br)cc1	-0.12
Cc1ccc(CS(=O)(=O)CCC(=O)O)cc1	0.68
CCOC(=O)c1c(C)n(C)c2c1cc(OC(=O)c1ccc(F)cc1)c1ccccc12	1.2
Cc1cc(C)cc(-n2nc3c(c2NC(=O)c2ccc(S(=O)(=O)N4CCCC4)cc2)CSC3)c1	1.2
CCCCOC(=O)c1cccc(NC(=O)c2ccc(F)cc2)c1	0.21
O=C(CCNS(=O)(=O)c1ccc(Cl)cc1)NCc1cccnc1	-0.02
COC(=O)c1ccc(C(=O)OC)c(NC(=O)c2cccc(Cl)c2)c1	0.43
Cc1cccc(C)c1NC(=O)CN1C(=O)c2ccccc2C1=O	1.1
CC(C)c1ccc(NC(=O)C2CCN(S(=O)(=O)c3ccc(Br)s3)CC2)cc1	1.6
O=C(c1ccc2c(=O)n(Cc3ccco3)c(=S)[nH]c2c1)N1CCOCC1	0.54
CC(=O)Oc1ccccc1C=Cc1ccc2ccccc2[n+]1C	-0.45
N#Cc1c(N)nc(SCC(=O)Nc2ccccc2)c(C#N)c1-c1ccccc1	0.89
CCCCCCC(C)n1c(-c2nonc2N)nc2ccccc21 (configuration not stated)	1.2
COc1ccc(N2CCN(CC(O)COc3ccc(C)cc3C(C)(C)C)CC2)cc1 (configuration not stated)	-1.5
O=C(Nc1ccc2oc(-c3cccnc3)nc2c1)c1ccccc1Cl	-0.29
CCN(CC)CCn1c(N)c(C(=O)Nc2ccccc2C)sc1=S	-1
COc1ccccc1CNC(=O)Cn1nc(-c2ccccc2)ccc1=O	0.43
Cn1c(C(=O)O)c(CC(=O)NCCN2CCOCC2)c2ccccc21	-0.11
COc1cc2c(cc1OC)C(COc1cc(C)cc(C)c1)N(C(=O)COc1ccccc1)CC2 (configuration not stated)	-0.29
O=C(Oc1ccc2c3c(c(=O)oc2c1)CCCC3)c1ccccc1Br	-0.24
COc1ccc(OC)c(NC(=O)COc2ccc(Br)cc2C(C)(C)C)c1	-0.5
Oc1ccc(C2Nc3ccccc3-c3nnc(SCc4ccccc4)nc3O2)cc1 (configuration not stated)	0.62
Cc1ccc(OCC(=O)c2cc(C)c(O)cc2O)cc1	-0.74
O=C(CCN1CCN(CC(=O)Nc2ccccc2Cl)CC1)Nc1ccccc1F	-0.87
Cc1nc2sc3c(c2c(=O)n1Cc1cccc(F)c1)CCCC3	-0.52

In the list so far, four have an NH in an aromatic ring.
smiles	Measles inh
COCCCNC(=O)CCCn1c(=O)[nH]c2ccccc2c1=O	0.97
O=C(O)c1c[nH]c2ccc(S(=O)(=O)N3CCc4ccccc4C3)cc2c1=O	-1.9
C=CCSc1nc2c(c(=O)[nH]c(=O)n2C)n1CCc1ccccc1	0.95
O=C(c1ccc2c(=O)n(Cc3ccco3)c(=S)[nH]c2c1)N1CCOCC1	0.54

The listing picks up, starting six compounds before the break.
smiles	Measles inh
O=C(Oc1ccc2c3c(c(=O)oc2c1)CCCC3)c1ccccc1Br	-0.24
COc1ccc(OC)c(NC(=O)COc2ccc(Br)cc2C(C)(C)C)c1	-0.5
Oc1ccc(C2Nc3ccccc3-c3nnc(SCc4ccccc4)nc3O2)cc1 (configuration not stated)	0.62
Cc1ccc(OCC(=O)c2cc(C)c(O)cc2O)cc1	-0.74
O=C(CCN1CCN(CC(=O)Nc2ccccc2Cl)CC1)Nc1ccccc1F	-0.87
Cc1nc2sc3c(c2c(=O)n1Cc1cccc(F)c1)CCCC3	-0.52
O=C1c2ccccc2NC(c2ccc(Br)cc2)N1c1ccc(Cl)cc1 (configuration not stated)	-0.28
CC1(C)CC(=O)C2=C(C1)Nc1cc(C(=O)c3ccccc3)ccc1NC2c1ccc(C(F)(F)F)cc1 (configuration not stated)	0.9
O=C1CCCC2=C1C(c1cccnc1)c1c(nc(SCc3ccccc3F)[nH]c1=O)N2 (configuration not stated)	-0.82
CC1=C(C(=O)OCCOc2ccccc2)C(c2cccs2)C2=C(CC(c3cccs3)CC2=O)N1 (configuration not stated)	-0.27
O=C(NC1CCCC1)N1c2ccccc2Sc2ccccc21	-0.37
O=C1C2C3CCC(C3)C2C(=O)N1c1ccccc1F (configuration not stated)	-0.46
CCN(CC)c1ccc(NS(=O)(=O)c2ccc3c(c2)CC(C)N3C(C)=O)c(C)c1 (configuration not stated)	3.1
CC(C)(C)c1ccc2c(c1)N(CC(=O)NCCCN1CCc3ccccc3C1)C(=O)CO2	-1
O=S(=O)(Nc1cccc(F)c1)c1cccc2nsnc12	-0.44
CCOC(=O)c1c(N)n(-c2ccc(C)c(C)c2)c2nc3ccccc3nc12	-0.84
CCCCCSc1oc(-c2ccco2)nc1S(=O)(=O)c1ccc(Cl)cc1	-2.2
COC(=O)C1=NNC2(C)C(=O)N(c3ccccc3Cl)C(=O)C12 (configuration not stated)	-0.8
COc1cccc(C2C3=C(CC(C)(C)CC3=O)Nc3nc(C(F)(F)F)nn32)c1OC (configuration not stated)	-0.53
CC(C(=O)Nc1cccnc1)N(c1ccccc1)S(C)(=O)=O (configuration not stated)	2.3
CCOc1ccc(-c2cc(C(=O)N3CCN(c4ccccc4)CC3)c3ccccc3n2)cc1	-0.69
Cc1cccc(N2C(=O)C(Cl)=C(Nc3ccccc3O)C2=O)c1C	-0.29
CC(C)(C)N=C(NS(=O)(=O)c1ccc(Br)cc1)c1ccccc1	2.3
Cc1cc(O)c(Cl)cc1C(O)(C(F)(F)F)C(F)(F)F	-1
Cc1ccc(Cc2c(C)nc3nc(SCC(=O)Nc4ccc(Br)cc4)nn3c2C)cc1	1.8
NC1=Nc2cc(C(=O)O)ccc2Sc2ccccc21	-0.62
O=c1oc2cc(O)ccc2cc1-c1csc(-c2ccc(Br)cc2)n1	0
COC(=O)C1=C(C)N=C2SC(C)C(=O)N2C1c1cccc(Br)c1 (configuration not stated)	0.34
CN(C1CCCCC1)S(=O)(=O)c1cccc2cccnc12	-1.6
Cc1ccc(C)c(Cn2c(=O)n(CCCC(=O)NCc3ccc(F)cc3)c(=O)c3ccccc32)c1	-0.28
COCCOC(=O)C1=C(C)NC(=O)NC1c1cn(-c2ccccc2)nc1-c1ccc(Cl)cc1 (configuration not stated)	-0.56
Cc1ccccc1CS(=O)(=O)Cc1ccc(C(=O)NCc2ccco2)o1	0.55
O=c1oc2ccccc2cc1-c1cn2ccccc2n1	-1.3
N#Cc1nc(COc2ccc(Cl)cc2)oc1N1CCCCC1	-0.33
O=c1c2cc(N3CCOCC3)ccc2nc(SCc2ccccc2Cl)n1Cc1ccccc1	-1.1
CCOc1ccc(C2C(N3C(=O)c4ccc([N+](=O)[O-])cc4C3=O)C(=O)N2c2ccc(Br)c(C)c2)cc1 (configuration not stated)	0.34
COC(=O)c1ccc(-c2csc(NC(=O)c3ccc(S(=O)(=O)N4CC5(C)CC4CC(C)(C)C5)cc3)n2)cc1 (configuration not stated)	0.9
COc1ccccc1CNC(=O)C1c2ccccc2C(=O)N(C)C1c1c[nH]c2ccccc12 (configuration not stated)	-0.8
O=C1c2ccccc2C(=O)N1CC1=NCCc2ccccc21	0.21
CC(=O)c1cc(F)c(N2CCCCC2)cc1C	1.8
CC(=O)N1N=C(c2ccccc2)OC12CCCCCC2	0.25
O=C(c1ccc(Cl)cc1)N1CCN(c2c(Cl)cccc2[N+](=O)[O-])CC1	-1.2
CCOc1ccc(/C(O)=C2\C(=O)C(=O)N(Cc3cccnc3)C2c2ccc(C(C)(C)C)cc2)cc1 (configuration not stated)	-0.68
CC1(C2(O)CC(c3ccccc3)ON2)CCCCC1 (configuration not stated)	-0.44
O=C(c1ccc([N+](=O)[O-])cc1)N1CCN=C1SCc1cccnc1	-0.3
CC(C)(CC(=O)NCc1ccc(Cl)cc1)CC1=NS(=O)(=O)c2ccccc2N1	-0.88
Nc1ncnc(N2CCCc3ccccc32)c1[N+](=O)[O-]	0.24
CCOC(=O)c1cccc(NC(=O)COc2c(C)ccc(C)c2C)c1	2.6
O=C(NCCC1=CCCCC1)c1ccc(Sc2ccc(F)cc2)c([N+](=O)[O-])c1	-0.25
COc1ccc(-n2c(SCc3cc(=O)n4ccccc4n3)nc3ccsc3c2=O)cc1	2
Cc1sc2c(c1C)c(=O)n(-c1ccc(F)cc1)c(=O)n2Cc1cccc([N+](=O)[O-])c1	2.3
CCCOc1ccc(OC(=O)c2cccc([N+](=O)[O-])c2)cc1	-0.19
COc1ccccc1NC(=O)c1c(NCc2ccc(OC)c(OC)c2)sc2c1CCC2	0.73
